Screening results from PubChem BioAssay.
VDR inhibitor: blocks the human vitamin D receptor | Potency, µM, without a hit: max response, negative = inhibition, most hits filed as inhibitors | P11473 | hit rate 0.93% among 400,000 | VDR-SRC2-3 peptide fluorescence polarization, 2 h; active means well fitted inhibition curve with a large enough effect; inconclusive means small, poorly fitted or top-dose-only effect, or another doubt; inactive means no such curve, though single readings can be large or run the other way; further: series mostly up to about 120 µM
Target sequence (P11473 whole entry, looked up): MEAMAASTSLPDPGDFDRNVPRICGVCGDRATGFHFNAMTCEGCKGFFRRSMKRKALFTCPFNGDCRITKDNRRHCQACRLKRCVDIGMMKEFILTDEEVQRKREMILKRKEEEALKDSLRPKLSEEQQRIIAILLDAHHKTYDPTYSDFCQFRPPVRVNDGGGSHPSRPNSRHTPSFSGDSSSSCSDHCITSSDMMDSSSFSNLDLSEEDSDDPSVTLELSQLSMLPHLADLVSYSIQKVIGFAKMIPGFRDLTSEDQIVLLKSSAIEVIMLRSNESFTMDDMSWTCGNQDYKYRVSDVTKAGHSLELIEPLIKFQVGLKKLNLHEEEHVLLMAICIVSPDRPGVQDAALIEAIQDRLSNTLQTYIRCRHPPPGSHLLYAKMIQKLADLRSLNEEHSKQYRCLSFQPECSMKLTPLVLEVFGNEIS
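FP read-out; VDR + SRC2-3 coactivator peptide; 23 nl compound by pintool; 2 h RT incubation; reagents held at 4 deg C, protected from light.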
The depositor's hits bear a star; ? = inconclusive; & = joins results of further samples. On the % scale 0 is the no-effect control and ±100 the full control effect; potency means the concentration at half of the fitted maximal effect. This is a subset. The share of hits here may be higher or lower than overall.

SMILES	VDR inhibitor
CCOC(=O)c1cc(-c2ccc(F)cc2)n(CC(=O)NC2CCCCCC2)c1C	-1%
Cc1ccc(S(=O)(=O)N2CCOCC2)cc1C(=O)NCc1cn2ccsc2n1	13%
O=C(NCCNC(=O)c1cnccn1)c1ccc(Cl)c(Cl)c1	2%
Cc1c(Cl)cccc1NC(=O)CSc1nc(=O)n(CCN2CCOCC2)c2c1CCC2	13%
CC(C)CC(NC(=O)C(CO)NC(=O)C1CCC(=O)N1)C(N)=O (stereo not drawn)	0%
Cc1oc2c(c(C)cc3oc(=O)c(CC(=O)N[C@@H](CC(C)C)C(=O)O)c(C)c32)c1C	-20%
COC(=O)CC1C(=O)NCCN1C(=S)Nc1ccccc1Cl (stereo not drawn)	-12%
O=C(Nc1cccnc1)/C(N=Nc1ccc(Cl)c(C(F)(F)F)c1)=C(\O)c1ccccc1	-5%
Cc1ccc2nc(C(F)OC(F)(F)F)[nH]c2c1 (stereo not drawn)	10%
CCOc1cc(C(C(=O)NCC2CCCO2)N(C(=O)Cn2nnc3ccccc32)c2ccc(NC(C)=O)cc2)ccc1O (stereo not drawn)	-23%
CN(C)c1nc(C(=O)O)nc(N2CCOCC2)n1	7%
CC(NCc1ccco1)C(=O)N1CCc2ccccc2C1 (stereo not drawn)	-2%
CCOC(=O)c1ccc(NC(=O)c2oc3ccc4c(c3c2C)C(=O)CC(C)(CC)O4)cc1 (stereo not drawn)	1%
COc1ccc(CC2=C(O)c3ccccc3C(=O)C2=O)cc1	?
O=C(CCc1nnc(C2CCCCC2)o1)N1CCN(Cc2ccccc2)CC1	?
CCOc1ccccc1NC(=O)CN(c1nccs1)S(=O)(=O)c1ccc(N)cc1	-10%
CC(C)C[C@H](NC(=O)OC(C)(C)C)c1n[nH]c(=S)n1N	-25%
C#CCOc1ccccc1/C=N/NC(=O)c1ccccc1OCc1ccccc1	-20%
CN(C(=O)c1ccc(NC(=O)Cc2ccc(NC(=O)C3CCN(C(=O)C4CCCCC4)CC3)cc2)cc1)C1CC1	-7%
Cc1cc(-c2ccc(S(=O)(=O)Nc3ccc(Cl)cc3)cc2)on1	-8%

Exported with each value named: part of the list above.
SMILES: COc1ccc(CC2=C(O)c3ccccc3C(=O)C2=O)cc1
  VDR inhibitor: ?
SMILES: COC(=O)CC1C(=O)NCCN1C(=S)Nc1ccccc1Cl (stereo not drawn)
  VDR inhibitor: -12%

The listing picks up, repeating the 3 entries before the break.
SMILES	VDR inhibitor
C#CCOc1ccccc1/C=N/NC(=O)c1ccccc1OCc1ccccc1	-20%
CN(C(=O)c1ccc(NC(=O)Cc2ccc(NC(=O)C3CCN(C(=O)C4CCCCC4)CC3)cc2)cc1)C1CC1	-7%
Cc1cc(-c2ccc(S(=O)(=O)Nc3ccc(Cl)cc3)cc2)on1	-8%
CC(=O)NCCOC(=O)Nc1cccnc1	23%
COc1c(F)c(F)c(C(=O)Nc2ccc3oc(-c4ccncc4)nc3c2)c(F)c1F	0%
CCOC(=O)c1sc2nccc(N(C)C)c2c1N=CNOCc1c(F)cccc1Cl	11%
CCC(C)/C=C/C1=CC2=C(Cl)C(=O)C3(C)OC(=O)C(C(=O)C(C)C(C)O)C3C2=CO1 (stereo not drawn)	-27%
COc1cc(NC(=S)NCc2cccs2)cc(OC)c1	-20%
Cc1ccc(C(=O)Oc2ccc(C(=O)COC(=O)C3CC(=O)N(Cc4ccco4)C3)cc2)cc1 (stereo not drawn)	-16%
O=C(NC(=S)NCC1CCCO1)c1ccccc1[N+](=O)[O-] (stereo not drawn)	4%
O=C(Nc1nc(-c2ccccc2)cs1)c1cccnc1	4%
NS(=O)(=O)OCc1ccc(C(F)(F)F)cc1	4%
O=C(CSC1=NS(=O)(=O)c2ccccc2N1)NCc1ccc(F)cc1	-25%
CC/C=C\C/C=C\C/C=C\C/C=C\C/C=C\C/C=C\CCC(=O)O[C@H](COCCCCCCCCCCCCCCCC)COP(=O)([O-])OCC[N+](C)(C)C	?
O=C(NNC(=O)c1ccccc1F)c1cccc(S(=O)(=O)N2CCc3ccccc32)c1	-8%
COc1ccc(NC(=O)c2cc(OC)c(OC)cc2OC)c(S(=O)(=O)N2CCOCC2)c1	3%
Cc1ccc(N(CC(=O)NCCSc2ccccn2)S(C)(=O)=O)cc1	-22%
COc1c2c(cc3oc(=O)ccc13)OC(C)(C)C=C2	-22%
O=C1CC(Sc2nnc(-c3ccccc3O)o2)C(=O)N1c1ccccc1 (stereo not drawn)	14%
CCC1CCCCN1CCCNC(=O)C1CCN(Cc2nc(-c3ccc(Cl)cc3)oc2C)CC1 (stereo not drawn)	1%
COc1ccccc1OCCOCCOc1ccccc1Cl	-7%
CC(C)COP(=O)(OCC(C)C)C(O)c1ccc2c(c1)OCO2 (stereo not drawn)	-13%
CC(Oc1ccc(Cl)cc1Cl)C(=O)NC1=NN(c2ccccc2)C(=O)C1 (stereo not drawn)	2%

The results go on:
SMILES	VDR inhibitor
CCc1ccc(CCC(=O)Nc2ccccc2C(=O)O)o1	4%
CCN(C(=O)CSc1nnc(-c2ccc(OC(F)F)cc2)n1N)C1CCS(=O)(=O)C1 (stereo not drawn)	-15%
O=C(Nc1ccc(Cl)cn1)c1cccc(S(=O)(=O)N2CCOCC2)c1	7%
COc1ccccc1NC(=O)c1sc2nc(C)c(C(=O)Nc3ccc(C)cc3C)c(-c3ccccc3Cl)c2c1N	11%
CCOC(=O)C1CCN(C(=O)c2ccc(-n3ccc4ccccc43)s2)CC1	-2%
Cn1c(=O)n(-c2ccc3c(c2)OCO3)c2nc(-c3ccccc3)nc(C(N)=O)c21	-22%
O=C(NCCc1ccc(Cl)cc1)c1ccc(CS(=O)Cc2ccccc2Cl)o1 (stereo not drawn)	-11%&11%
O=C(Nc1cc(-c2nc3ncccc3o2)ccc1Cl)c1ccc2c(c1)OCO2	-21%
O=C(CSCc1ccc([N+](=O)[O-])cc1)NN=C1CCCCCC1	-18%
Cc1ccc2c(COC(=O)CNC(=O)c3ccccc3)cc(=O)oc2c1	2%
CCSC1=N/C(=C\c2cccc(F)c2)C(=O)S1	-1%
Cc1cc(C)n(C2CC(=O)N(c3cccc(Cl)c3)C2=O)n1 (stereo not drawn)	?
COC(=O)N/N=C/c1cc(C)n(-c2ccc(F)cc2)c1C	-1%
Cc1[nH]c2ccc(F)cc2c1CCNC(=O)C1CCCCC1C(=O)OCC(F)(F)F (stereo not drawn)	-11%
O=C(O)c1ccc(CNS(=O)(=O)c2ccc(Oc3ccccc3Cl)cc2)cc1	-14%
CCCCn1c(N)c(N(CC(C)C)C(=O)CSc2nnc(-c3ccc(Cl)cc3)o2)c(=O)[nH]c1=O	-16%
Cc1ccc(C2C(C(=O)c3cccs3)=C(O)C(=O)N2CCN2CCOCC2)o1 (stereo not drawn)	-3%
Cc1ccc(C(=O)Nc2nnc(C)s2)o1	12%
O=S1(=O)c2ccccc2N(Cc2ccc(F)cc2)c2ccccc21	2%
COc1ccc(C(=O)NCc2nnc(SCC(=O)Nc3ccccc3OC)n2C)cc1	15%

Next structures follow:
SMILES	VDR inhibitor
CCOC(=O)c1c(S(=O)(=O)Nc2ccc(C)cn2)c(C)n(C)c1C	?
O=c1c2sc3nc(N4CCOCC4)c4c(c3c2ncn1-c1ccccc1)CCCC4	-3%
CCOC(=O)CCc1c(C)nc2c(c(C)nn2-c2ccccc2)c1C	10%
Cc1ccc(-c2nnn(CCC(=O)N3CCCCC3C)n2)cc1 (stereo not drawn)	-4%
C=CCN(CC=C)C(=O)c1ccc(OC2CCN(Cc3ccccn3)CC2)cc1	-12%
CCCC(=O)C1=C(O)C(C(=O)OC)C(C)(C)CC1=NC(C)C (stereo not drawn)	4%
Nc1nccnc1C(=O)OCC(=O)Nc1cccc(S(=O)(=O)N2CCCCC2)c1	18%
O=C(O)c1cn(Cc2ccccc2)c2ccc(Cl)cc2c1=O	-20%
CC(=O)N/N=C/c1cc(C(C)C)cc(/C=N/NC(C)=O)c1O	-10%
CC(C)(C)c1ccc(C(=O)/C(C#N)=C/c2cccs2)cc1	-13%
CC1CCN(CCOc2ccc(Cl)c(Cl)c2)CC1	10%
Nc1ccc2c(c1)COc1ccccc1O2	-14%
CCc1nc(SCc2cc(Cl)ccc2OC)n[nH]1	0%
CC(C)(C)SC(=O)CC1NS(=O)(=O)OC2CCCCC12 (stereo not drawn)	0%
CCN(CC)S(=O)(=O)c1ccc(-c2nnc(SCC(=O)N3CCOCC3)o2)cc1	-8%
Cc1cccc(C)c1NC(=O)c1sccc1SCc1cccc(C(F)(F)F)c1	-11%
O=S1(=O)c2ccc(Br)cc2N2CCC[C@@H]2CN1Cc1ccc(Cl)cc1	-21%
COc1ccc(S(=O)(=O)N(CC(=O)O)Cc2ccccc2)cc1OC	1%
COc1cccc2sc(NC(=O)c3ccc(S(=O)(=O)N4CCOCC4)cc3)nc12	9%
Cc1cnc(CN(C)Cc2c(C(=O)N3CCCCCCC3)nc3ccc(Cl)cn23)[nH]1	8%

Random excerpt: four entries already listed
SMILES	VDR inhibitor
COc1ccc(S(=O)(=O)N(CC(=O)O)Cc2ccccc2)cc1OC	1%
Nc1ccc2c(c1)COc1ccccc1O2	-14%
CCOC(=O)CCc1c(C)nc2c(c(C)nn2-c2ccccc2)c1C	10%
CC1CCN(CCOc2ccc(Cl)c(Cl)c2)CC1	10%

(further entries)
SMILES	VDR inhibitor
Cn1c(SCc2cccc([N+](=O)[O-])c2)nc2ccccc2c1=O	-10%
COc1cc(CNc2ccc(N3CCCC3)cc2)ccc1OCc1ccccc1F	79µM*
CN(C(=O)COC(=O)Cn1c(C(F)(F)F)nc2ccccc21)c1c(N)n(Cc2ccccc2)c(=O)[nH]c1=O	4%
Cc1ccccc1N=Nc1c(C)[nH]n(-c2ccccc2)c1=O	0%
CCN(CC)CC(=O)Nc1nn(-c2ccccc2)nc1C(N)=O	4%
O=C(c1ccco1)N1CCN(C(c2ccccc2Cl)c2nnnn2Cc2cccs2)CC1 (stereo not drawn)	-2%
O=C(c1ccc2ccccc2c1)N1CCCC1	10%
CCCN(CC(=O)Nc1ccc(C(N)=O)cc1)CC(=O)Nc1cc(Cl)ccc1Cl	-12%
CCc1cccc(NC(=O)CCc2c(C)nc3c(c2C)c(=O)n(C)c(=O)n3C)c1	-3%
COC(=O)Cc1c(C)[nH]n(-c2cc(Cl)cc(Cl)c2)c1=O	?
COc1ccc(Cl)cc1NC(=O)CN(C)C(=O)CCC(=O)c1cc(C)sc1C	-12%
COc1cc(Cl)c(C)cc1NC(=O)c1cnn(-c2ccc(F)cc2F)c1C1CCN(C(=O)OC(C)(C)C)CC1	11%
Cc1nn(-c2ccccc2)c2sc(C(=O)OCC(=O)N3CCCCC3)cc12	-10%
O=C1C(=O)N(CCN2CCOCC2)C(c2cccc(Cl)c2)/C1=C(\O)c1ccc2c(c1)OCCO2 (stereo not drawn)	1%
COc1cc(COC(=O)Oc2ccc(CNC(C)=O)cc2OC)c([N+](=O)[O-])cc1OC	-20%
CCc1c2c(nc3ccc4c(c13)OCCO4)-c1nc3ccccc3c(=O)n1C2	-12%
COc1cc(CC(=O)Nc2nc(-c3ccccc3)c(C(C)=O)s2)cc(OC)c1OC	14%
N#CC(=C(c1ccccc1)c1ccccc1)c1ccccc1	0%
CC1=C(C(=O)Nc2ccccc2)C(c2cccs2)n2nc(SCc3ccccc3)nc2N1 (stereo not drawn)	-16%
O=C(COC(=O)COc1ccccc1)Nc1ncc([N+](=O)[O-])s1	?

3 entries from above, arranged by the number in VDR inhibitor, high to low:
SMILES	VDR inhibitor
O=C(c1ccc2ccccc2c1)N1CCCC1	10%
Cn1c(SCc2cccc([N+](=O)[O-])c2)nc2ccccc2c1=O	-10%
COc1ccc(Cl)cc1NC(=O)CN(C)C(=O)CCC(=O)c1cc(C)sc1C	-12%

Next part:
SMILES	VDR inhibitor
FC(F)Sc1ccc(NC(=S)NC2CCCCC2)cc1	-14%
S=C1NC(c2ccccc2)N2C(=S)NC(c3ccccc3)N12 (stereo not drawn)	?
O=C(Nc1cccc([N+](=O)[O-])c1)Nc1cnccn1	-3%
O=C(Nc1nnc(COc2ccc(F)cc2)s1)c1cccs1	1%
COc1cc(C(=O)/C=C/Nc2ccc(NC(C)=O)cc2)cc(OC)c1OC	-7%
CCOc1ccc(NC(=O)c2ccc(-c3csc(C)n3)cc2)cc1	6%
COc1ccc(C(=O)NCC(c2cccnc2)N2CCN(c3ccccc3OC)CC2)cc1OC (stereo not drawn)	-5%
CCCN1C(=O)/C(=C2/C=Cc3ccccc3N2CC)SC1=S	10%
CCOc1ccc(OCCC(=O)OCC(=O)Nc2ccc3c(c2)OCCO3)cc1	-3%
Cn1c(CNC(=O)c2ccco2)nnc1SCC(=O)c1ccccc1	-15%
Cc1ccc(S(=O)(=O)N2CCOCC2)cc1C(=O)NC1CCCC(C)C1C (stereo not drawn)	-4%
CC(C)(C)c1ccc(C(=O)Nc2ccc(-c3nc4cc(Cl)ccc4o3)cc2)cc1	2%
O=C(CCN1C(=O)/C(=C/c2ccccc2)SC1=S)NNC(=O)c1cccnc1	4%
CCCOc1ccc(Oc2cc(C)nc(SC)n2)nn1	-10%
CCSc1nnc(NC(=O)c2ccc3c(c2)OCO3)s1	5%
CCn1c(=O)n(CC)c2cc(N3CCCCC3)c(NC(=O)Nc3ccccc3C(F)(F)F)cc21	1%
